gsp antag: gsp mutant antagonism | gsp-mutant cells, cAMP HTRF, 30 min; control for the full effect not named in the record | Potency, µM (doses to about 76.9 µM), for inactives: top-dose activity change, negative = inhibition, most hits filed as inhibitors | 340,000 tested, 0.4% active | AID 624288; active = falling curve of any shape with a large fitted effect; inconclusive = falling curve, mostly with a smaller effect; inactive = flat or rising curve; cell line not stated here;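 also: intracellular cAMP measured with PDE inhibitor Ro 20-1724 present during compound exposure; potency is read from the fitted curve at half-maximal effect; % is scaled to controls: 0 for no effect and ±100 for the full control effect; nearly all actives have a fitted effect of over 65% in size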
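Measurement of cellular cAMP by homogeneous time-resolved fluorescence following a 30 min compound exposure at 37C. The PDE inhibitor […] was present throughout; the assay buffer was DPBS with 0.05% BSA and 0.005% Tween 20.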
TRPV1 PAM: enhances activation of the human vanilloid receptor TRPV1; TRPV1-expressing cells, Fluo-8 calcium influx, capsaicin EC20 potentiation; host cell line not named in the record; control for the full effect not named in the record; 320,000 tested, 0.02% active; potentiation, % at 8.33 µM; active means potentiation above 80%; inconclusive means 30% to 80%; inactive means below 30%; also: 0% is about no effect
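Fluo-8 calcium influx in TRPV1-expressing cells, kinetic read (ex 480/em 520 nm). Compound added and read 3 min for agonist activity, followed by capsaicin at EC20 final and 2 min further read for enhancement.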
ClpP mod: qHTS Assay for Activators of ClpP; purified B. subtilis ClpP, FRET peptide cleavage, 20 min; 340,000 tested, 1.9% active; ATP-dependent Clp protease proteolytic subunit (Bacillus subtilis (strain 168)), P80244; AID 651965, 2013; Potency, µM (top dose mostly 57.5 µM), for the others: at the highest dose activity change, negative = active; active = well fitted falling curve with a large enough effect; inconclusive = small, poorly fitted or top-dose-only effect; inactive = no such curve, though single readings can be large or run the other way; also: potency is read from the fitted curve at half-maximal effect; the source files actives as falling curves though it sought activators and does not explain the sign; nearly all actives have a fitted effect of over 65% in size; many hits overshoot -100%
Target sequence (P80244 whole entry, looked up): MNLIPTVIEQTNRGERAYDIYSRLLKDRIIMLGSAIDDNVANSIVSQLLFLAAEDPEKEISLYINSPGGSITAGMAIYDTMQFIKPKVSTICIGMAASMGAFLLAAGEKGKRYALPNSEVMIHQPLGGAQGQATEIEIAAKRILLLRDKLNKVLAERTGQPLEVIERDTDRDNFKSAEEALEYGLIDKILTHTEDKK
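FRET quenching reversal measured ClpP activation: 10 microg/mL B. subtilis ClpP at pH 8 with the FRET-FV decapeptide, read at 430 nm after 320 nm excitation. The 20-min minus 0-min signal was scaled between DMSO/no-enzyme wells and ADEP (5.8 microM final).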
Sfp inh: blocks B. subtilis Sfp PPTase activity; Potency, µM, for inactives: max response, negative = inhibition, hits mostly inhibitors; 310,000 tested, 3.5% active; AID 1490; Biochemical Sfp PPTase activity, qHTS; Q9F4F7; active = well fitted inhibition curve with a large enough effect; inconclusive = small, poorly fitted or top-dose-only effect, or another doubt; inactive = no such curve, though single readings can be large or run the other way;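 also: the enzyme is Sfp with the accession as filed and its product quenches rhodamine fluorescence; potency is read from the fitted curve at half-maximal effect; 0% = enzyme reaction without inhibitor and -100% = no enzyme wells; top concentration of the series not given in the record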
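After 15 min at room temperature with compound, 15 nM Sfp received 5 uM rhodamine-CoA plus 12.5 uM BHQ-2-ybbR (50 mM Hepes pH 7.6, 10 mM MgCl2). Rate came from the fluorescence difference over 30 min, ex 525/em 598 nm.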
gsp ag: gsp mutant agonism; gsp mutant cells, cAMP HTRF, 30 min; control for the full effect not named in the record; Potency, µM (series often up to 76.9 µM), inactives show top-dose activation (cAMP increase), most hits filed as activators; 340,000 tested, 0.13% active; AID 624287; active = well fitted activation curve with a large enough effect; inconclusive = small, poorly fitted or top-dose-only effect, or another doubt; inactive = no such curve, though single readings can be large or run the other way; cell line not stated here;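 also: phosphodiesterase inhibitor Ro 20-1724 added with compounds to block cAMP breakdown; potency is read from the fitted curve at half-maximal effect; nearly all actives have a fitted effect of over 60% in size; about a fifth of the inactives were tested at one dose only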
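Cells in DMEM/10% FBS with G418 were pretreated with compounds in DMSO plus […] (300 uM stock) for 30 min at 37C. cAMP was measured by HTRF (cAMP-d2 plus anti-cAMP antibody-K) after 30 min at room temperature.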
TRPML1 blocker: inhibitors of human TRPML1 channel; Q9GZU1; TRPML1-inducible cells, Ca2+ dye fluorescence, FDSS; active compounds read low; inhibition of EC80 agonist-evoked calcium signal; activity change, negative = inhibition, % (no concentration beside the values); 390,000 tested, 0.02% active; AID 624415; in the data active means activity change below about -50%; inconclusive means about -30% to -50%; inactive means above about -30%;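 also: stimulus is agonist 54-4 at its EC80 concentration; % is scaled to controls: 0 for no effect and ±100 for the full control effect; compound concentration not given in the record; the text of the record puts the active cut at -80%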
Target sequence (Q9GZU1 whole entry, looked up): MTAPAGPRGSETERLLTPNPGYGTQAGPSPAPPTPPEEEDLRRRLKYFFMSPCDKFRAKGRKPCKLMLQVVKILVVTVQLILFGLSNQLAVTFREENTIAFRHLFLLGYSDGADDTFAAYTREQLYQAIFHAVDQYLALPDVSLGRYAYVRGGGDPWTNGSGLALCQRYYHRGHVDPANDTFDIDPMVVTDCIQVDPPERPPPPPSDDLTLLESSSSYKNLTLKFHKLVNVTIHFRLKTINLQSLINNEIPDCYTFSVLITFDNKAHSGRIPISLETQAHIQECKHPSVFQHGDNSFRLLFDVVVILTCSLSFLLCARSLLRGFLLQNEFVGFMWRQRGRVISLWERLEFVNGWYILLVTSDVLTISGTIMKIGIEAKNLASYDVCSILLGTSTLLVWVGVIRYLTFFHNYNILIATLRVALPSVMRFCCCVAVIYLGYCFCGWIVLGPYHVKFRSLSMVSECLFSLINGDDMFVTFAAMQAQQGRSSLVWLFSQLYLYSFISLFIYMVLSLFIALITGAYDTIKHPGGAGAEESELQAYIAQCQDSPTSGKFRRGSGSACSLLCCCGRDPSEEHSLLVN
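TRPML1-DL cells, Tet-induced overnight (~16 h, 37 °C) at 1,500 cells/well, were loaded with Ca8 no-wash dye plus quencher for 45-90 min at room temperature. Compounds were pinned during FDSS kinetic reading; agonist 54-4 at EC80 (4 uM final) then added.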
Menin-MLL FL inh: inhibitors of human menin-MLL interaction, wild-type MLL peptide. Fluorescence polarization, fluorescein-MLL peptide displacement from menin. FP activity change, % at 61.4 µM. 290,000 tested, under 10 active; inconclusive = falling polarisation curve, or a change in total fluorescence; inactive = total fluorescence flat and polarisation flat or rising; no compound was filed as active; the % refers to the polarisation; negative = inhibition;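 also: % of control where 0% means no effect; inhibitors lower the polarisation; unlabelled MLL peptide was the positive control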
* = called active by the depositor; ? = inconclusive; . = no result given; & = joins results of further samples; [ ] = remark or other dose.

The opening 6 entries (preview)
[1] CCOC(=O)/C(C(N)=NCCO)=C(/O)c1ccccc1
[2] CCOC(=O)C1CCN(C(=O)COC(=O)CNS(=O)(=O)c2ccc(SC)c([N+](=O)[O-])c2)CC1
[3] O=C(Nc1nccs1)C1Cc2ccccc2CN1S(=O)(=O)c1ccc(F)cc1 (stereo not drawn)
[4] COc1ccc(OC)c(NC(=O)CSc2nnc(Cn3c(=O)sc4ccccc43)n2C)c1
[5] COc1ccc2ccc(O)c(CN3CCN(S(=O)(=O)c4cccc(C(F)(F)F)c4)CC3)c2c1
[6] O=C(NC1CCCC1)c1ccc(CS(=O)Cc2ccccc2Cl)o1 (stereo not drawn)
screen / no.	1	2	3	4	5	6
gsp antag	7%	-7%	-12%	-13%	4%	4%
TRPV1 PAM	3	.	18	9	9	21
ClpP mod	-2.6%	0.4%	-4.0%	1.7%	-0.8%	0.2%
Sfp inh	-4%	.	8%	15%	.	5%
gsp ag	-37%[inhibitor]	16%	7%	-23%	-52%[inhibitor]	15%
TRPML1 blocker	5	13	14	2	24	-3
Menin-MLL FL inh	2.9	.	2.8	2.0	.	.

All compounds of this part, from the first entry:
[1] CCOC(=O)/C(C(N)=NCCO)=C(/O)c1ccccc1
[2] CCOC(=O)C1CCN(C(=O)COC(=O)CNS(=O)(=O)c2ccc(SC)c([N+](=O)[O-])c2)CC1
[3] O=C(Nc1nccs1)C1Cc2ccccc2CN1S(=O)(=O)c1ccc(F)cc1 (stereo not drawn)
[4] COc1ccc(OC)c(NC(=O)CSc2nnc(Cn3c(=O)sc4ccccc43)n2C)c1
[5] COc1ccc2ccc(O)c(CN3CCN(S(=O)(=O)c4cccc(C(F)(F)F)c4)CC3)c2c1
[6] O=C(NC1CCCC1)c1ccc(CS(=O)Cc2ccccc2Cl)o1 (stereo not drawn)
screen / no.	1	2	3	4	5	6
gsp antag	7%	-7%	-12%	-13%	4%	4%
TRPV1 PAM	3	.	18	9	9	21
ClpP mod	-2.6%	0.4%	-4.0%	1.7%	-0.8%	0.2%
Sfp inh	-4%	.	8%	15%	.	5%
gsp ag	-37%[inhibitor]	16%	7%	-23%	-52%[inhibitor]	15%
TRPML1 blocker	5	13	14	2	24	-3
Menin-MLL FL inh	2.9	.	2.8	2.0	.	.

[7] CC1CN(C(=O)CCNC(=O)c2ccc(Cl)cc2)CC(C)O1 (stereo not drawn)
[8] Cc1ccc(OCc2nnc(SCCN3CCOCC3)n2C)cc1
[9] Cc1sc2ncn(CCC(=O)O)c(=O)c2c1C
[10] Nc1ccc2c(c1)C(=O)C(=O)c1ccccc1-2
[11] O=C(CNCc1ccc(F)cc1)Nc1ccccc1-c1ccccc1
[12] O=C(C[n+]1ccccc1)N/N=C/c1cccc(Cl)c1Cl
screen / no.	7	8	9	10	11	12
gsp antag	3%	8%	6%	?	-15%	13%
TRPV1 PAM	-9	-3	-7	17	1	-3
ClpP mod	1.1%	0.7%	-1.9%	49%	-0.8%	2.4%
Sfp inh	5%	-28%	20%	13%	8%	7%
gsp ag	11%	6%	27%	29%	10%	-17%
TRPML1 blocker	1	-14	-7	13	0	0
Menin-MLL FL inh	.	3.5	1.2	-2.2	0.8	-7.7

[13] COC(=O)[C@@H]1C[C@@]2(O)[C@@H](O)[C@@H](O)[C@@H](O)C[C@H]2N1Cc1cc(OC)cc(OC)c1
[14] CC(=O)c1c(C)[nH]c(C(=O)COC(=O)c2c(-c3ccccc3)noc2C)c1C
[15] CS(=O)(=O)N(CC(=O)NC1CCCCCC1)Cc1ccccc1
[16] N#CC1(C#N)C(C(=O)C23CC4CC(CC(C4)C2)C3)C12CCOCC2 (stereo not drawn)
[17] COc1ccccc1NS(=O)(=O)c1ccc2c(c1)n(C)c(=O)n2C
[18] Cc1cccc(NC(=O)/C(C#N)=C/c2ccccc2O)n1
screen / no.	13	14	15	16	17	18
gsp antag	-6%	?	6%	12%	-16%	9%
TRPV1 PAM	-17	.	12	-18	-4	6
ClpP mod	-2.5%	-14%	0.6%	0.4%	-2.8%	3.5%
Sfp inh	17%&14%	.	13%	22%	-4%	5%
gsp ag	.	3%	1%	-2%[15.4 µM]	-1%	1%
TRPML1 blocker	?	26	54	6	31	15
Menin-MLL FL inh	2.3&3.9	.	-2.5	2.2	5.0	14

[19] C[C@H](NC(=O)c1ccccc1F)C(=O)N1CCC2(CC1)NCCc1[nH]cnc12
[20] Cc1nnc(SCC(=O)NC(=O)NC(C)(C)C)n1N
[21] Cc1cc(=O)oc(C)c1C(=O)NCCCN1C(C)CCCC1C (stereo not drawn)
[22] CCCC(=O)Nc1ccc(-c2cn3cccnc3n2)cc1
[23] O=C(O)/C=C/C(=O)Nc1ccccc1SC(F)(F)F
[24] COc1ccc(-c2noc(CN(C)C(=O)Nc3ccccc3)n2)cc1
screen / no.	19	20	21	22	23	24
gsp antag	5%	11%	14%	?	7%	-7%
TRPV1 PAM	3	-3	11	5	8	10
ClpP mod	-1.1%	-3.7%	-3.7%	.	4.9%	-1.4%
Sfp inh	3%	?	17%	14%	13µM*	6%
gsp ag	5%	38%	?	17%[15.4 µM]	17%	-31%[inhibitor]
TRPML1 blocker	16	27	-1	6	-4	2
Menin-MLL FL inh	.	6.6	?	1.2	-5.4	-2.8

[25] CC(=O)Nc1ccc(Nc2nc(Cl)nc(Nc3ccc(NC(C)=O)cc3)n2)cc1
[26] FC(F)c1nnc2c(Cl)cc(C(F)(F)F)cn12
[27] COc1ccc(/C=C/C(=O)NCCCN2CCCC2)cc1
[28] Cc1cc(C)c(S(=O)(=O)NCc2ccc3c(c2)OCO3)cc1C
[29] NC(=O)c1c(NC(=O)CN2CCCC2)sc2c1CCCC2
[30] COC(=O)c1ccc(COC(=O)CNC(=O)c2ccco2)cc1
screen / no.	25	26	27	28	29	30
gsp antag	8%	8%	11%	-7%	0%	-7%
TRPV1 PAM	28	15	18	1	6	-11
ClpP mod	.	-2.8%	-7.9%	-0.1%	-2.0%	-0.6%
Sfp inh	16%	10%	13%	9%	-12%	8%
gsp ag	-5%[15.4 µM]	12%[15.4 µM]	6%	-21%	3%	13%
TRPML1 blocker	22	1	.	8	7	35
Menin-MLL FL inh	2.3	-1.0	5.4	0.2	3.5	-0.8

[31] COc1ccccc1Nc1nc(N)nc(CN2CC(C)CC(C)C2)n1 (stereo not drawn)
[32] Cc1ccc(NC(=O)Nc2ccon2)cc1Cl
[33] CN(CCc1ccccn1)C1CCCN(S(=O)(=O)c2ccccc2)C1 (stereo not drawn)
[34] COCC(C)NCc1cccc(OC)c1OC (stereo not drawn)
[35] CCOC(=O)c1c(C)n2c3c(cc(C)cc13)CCC2
[36] CC(=O)NN1C(=O)c2ccccc2NC1c1ccccc1 (stereo not drawn)
screen / no.	31	32	33	34	35	36
gsp antag	3%	13%	6%	-11%	-3%	8%
TRPV1 PAM	9	-10	1	8	-5	-3
ClpP mod	1.2%	-0.9%	-2.2%	0.2%	.	.
Sfp inh	18%	-3%	15%	-14%	2%	-2%
gsp ag	2%[15.4 µM]	-18%	-5%[15.4 µM]	-2%	1%[15.4 µM]	?
TRPML1 blocker	3	-4	-7	-9	13	-8
Menin-MLL FL inh	0.9	5.9	.	1.2	4.1	2.6

[37] O=C(c1ccc(Oc2ccc(C(F)(F)F)cn2)cc1)N1CCN(c2ccccc2)CC1
[38] Cc1ccc(C(=O)Nc2ccc(C)c(S(=O)(=O)N(C)C)c2)s1
[39] Cn1c(=O)oc2cc(S(=O)(=O)NCCC(=O)N3CCc4ccccc4C3)ccc21
[40] O=C(NCc1ccccc1)C1CCCC1
[41] COc1ccc(CNC(=O)COC(=O)[C@H](Cc2c[nH]c3ccccc23)NC(=O)c2cccs2)cc1
[42] O=C(Nc1ccccc1C(=O)O)c1ccc(Br)o1
screen / no.	37	38	39	40	41	42
gsp antag	-14%	?	7%	.	?	?
TRPV1 PAM	.	-29	7	-15	0	5
ClpP mod	-1.2%	-2.0%	5.3%	.	?	0.7%
Sfp inh	4%	-2%	8%	6%	7%	28%
gsp ag	3%	-22%	9%	.	6%	-48%[inhibitor]
TRPML1 blocker	16	17	10	.	22	10
Menin-MLL FL inh	2.7	0.8	0.8	-0.8	5.6	1.2

[43] CCc1nnc(NC(=O)c2ccc(COc3ccccc3C)o2)s1
[44] CC(C)CC(=O)N1CCN(Cc2ccccc2Br)CC1
[45] CCNC(=S)N/N=C/c1ccc(-c2ccccc2)o1
[46] O=C(NCCC1=CCCCC1)c1ccc([N+](=O)[O-])cc1
[47] CCCCc1nc2cc(C(=O)NC3CCOC(C)(C)C3)ccc2o1 (stereo not drawn)
[48] O=C(N1CCN(c2cccc(Cl)c2)CC1)C1(S(=O)(=O)c2ccc(Cl)cc2)CC1
screen / no.	43	44	45	46	47	48
gsp antag	4%	6%	1%	11%	9%	-29%
TRPV1 PAM	1	-10	12	-20	-11	8
ClpP mod	.	-0.6%	-29%	0.6%	-2.2%	-0.3%
Sfp inh	12%	-20%	0%	-26%	8%	12%
gsp ag	13%[15.4 µM]	-36%	-10%	-32%[inhibitor]	?	31%
TRPML1 blocker	-22	4	-22	17	-3	43
Menin-MLL FL inh	.	1.4	1.7	-0.7	.	-0.3

[49] CCCn1nc(C(=O)NNC(=O)CSCC(=O)Nc2cc(C)on2)c2ccccc2c1=O
[50] CCOc1ccc(NC(=O)CSc2nc3nc4c(cc3c(=O)n2CC)COC(C)(C)C4)cc1
[51] Cc1nc(-c2ccc(S(=O)(=O)Nc3cc(S(=O)(=O)N(C)C)ccc3C)s2)cs1
[52] COc1cc(C2SCC(=O)N2CCN2CCCCC2)ccc1O (stereo not drawn)
[53] COc1ccc(-c2ccc(-c3noc(-c4ccccc4OC)n3)c(OC)n2)cc1
screen / no.	49	50	51	52	53
gsp antag	-3%	-20%	-19%	2%	10%
TRPV1 PAM	-3	11	10	0	-13
ClpP mod	-6.6%	.	0.7%	.	13%
Sfp inh	.	4%	11%	24%	6%
gsp ag	8%[15.4 µM]	?	13%	-15%	-27%
TRPML1 blocker	-6	-8	-19	-3	-8
Menin-MLL FL inh	.	-1.2	0.6	0.2	12

High-throughput results (PubChem)
